rRNA inh HTS: reduced GFP signal of wild-type E. coli, primary screen, bacterial rRNA inhibitor project, GFP/RFP fluorescence, OD600, single point; E. coli WT GFP vs humanized-ribosome RFP mutants, 24 h; hits give low values; DMSO median 0, no signal -100; GFP signal change (wild-type ribosome), % (concentration not given with the values); 350,000 compounds, 1.6% hits;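 active means significant combined selectivity score with lowered wild-type GFP, culture density cut under 30%, mutant RFP and density less affected; inactive means any of these conditions unmet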; further: one replicate is shown; some compounds called inactive have numbers as strong as hits
FGF22 binding: binders of human FGF22 protein, primary screen, FGF22 synaptogenesis inhibitor project, biophysical, thermal shift, single point; Fibroblast growth factor 22 (Homo sapiens), Q9HCT0; recombinant FGF22 thermal shift, SYPRO orange fluorescence; percent of sucrose octasulfate shift, DMSO zero; calls only at 9.99 µM; 340,000 compounds, 1.5% hits;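 active means melting point raised past a set limit in the mean and every replicate; three in four hits are not shown here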
Target sequence (Q9HCT0 whole entry, looked up): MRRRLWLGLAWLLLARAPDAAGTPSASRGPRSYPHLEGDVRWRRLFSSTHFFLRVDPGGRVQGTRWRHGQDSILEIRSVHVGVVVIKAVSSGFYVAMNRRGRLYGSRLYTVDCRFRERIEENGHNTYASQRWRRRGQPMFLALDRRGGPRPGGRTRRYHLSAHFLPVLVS
AF4-AF9 inh: inhibitors of AF4 peptide binding to AF9, primary screen, biochemical, AlphaScreen, biotin-AF4 peptide, FLAG-AF9, single point. inhibition, % at 10 µM. 350,000 compounds, 0.47% hits. Protein AF-9 (Homo sapiens), P42568. AID 651704, 2012;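 active means every replicate reaching a set inhibition limit, whatever the replicate mean, cut at about 25% in these data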;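 further: 0% = plate neutral control median and 100% = total signal loss; the record names both 10 and 1 µM as test concentration; the first replicate is given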
Target sequence (P42568 whole entry, looked up): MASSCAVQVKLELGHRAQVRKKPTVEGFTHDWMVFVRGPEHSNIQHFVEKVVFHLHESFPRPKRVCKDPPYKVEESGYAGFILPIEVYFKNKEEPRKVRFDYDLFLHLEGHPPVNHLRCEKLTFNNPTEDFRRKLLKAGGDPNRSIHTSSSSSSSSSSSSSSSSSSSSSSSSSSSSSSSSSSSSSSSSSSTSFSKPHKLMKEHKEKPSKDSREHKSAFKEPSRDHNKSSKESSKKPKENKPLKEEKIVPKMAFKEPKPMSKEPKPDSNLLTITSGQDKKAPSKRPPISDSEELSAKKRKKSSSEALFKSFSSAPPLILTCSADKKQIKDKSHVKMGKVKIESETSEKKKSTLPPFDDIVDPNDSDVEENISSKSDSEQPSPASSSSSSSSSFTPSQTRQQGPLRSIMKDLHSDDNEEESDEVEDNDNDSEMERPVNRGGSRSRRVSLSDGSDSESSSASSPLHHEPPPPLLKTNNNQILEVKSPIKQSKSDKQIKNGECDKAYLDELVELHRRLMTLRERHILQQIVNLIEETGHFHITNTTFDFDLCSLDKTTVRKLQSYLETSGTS
rRNA inh HTS OD600: also measured in rRNA inh HTS; calls as there; OD600 change, %; measured here: OD600 growth;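 optical density of the mix in the first replicate; 0 = DMSO median and -100 = no signal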
rRNA inh HTS RFP: second read-out of rRNA inh HTS, no call of its own (marks repeat the call); RFP signal change, %; measured here: RFP humanized mutant strains;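 first replicate; 0 = DMSO median and -100 = no signal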
* marks the source's active call; other numbers are inactive results; i = inactive; & = joins results of further samples. An excerpt. The share of hits here may be higher or lower than overall.

SMILES	rRNA inh HTS	rRNA inh HTS OD600	rRNA inh HTS RFP	FGF22 binding	AF4-AF9 inh
COC(=O)C1(C(=O)OC)c2cc3c(cc2CN(S(=O)(=O)c2ccc(C)cc2)C1CC(C)=O)OCO3 (stereo not given)	-2	10	6.5	i	2.2
O=C(Cc1ccccn1)N[C@@H]1CC[C@H](CCNS(=O)(=O)c2cccc(F)c2)O[C@H]1CO	3	1	-0.4	i	-4.6
COC(=O)C(C(C)C)N(Cc1cc(OC)cc(OC)c1)S(=O)(=O)CCl (stereo not given)	-29	-39	-9.9	i	3.6
COc1ccc(S(=O)(=O)Nc2ccc3c(c2)C(=O)N([C@H](C)CO)C[C@@H](C)[C@@H](CN(C)C(=O)c2ccncc2)OCCCC[C@H](C)O3)cc1	-3	1	-3.5	i	3.2
CO[C@@H]1CN(C)C(=O)c2cc(NC(=O)C3CCOCC3)ccc2OC[C@@H](C)N(CC2CC2)C[C@@H]1C	1	5	1.2	i	-0.8
Cc1ccc(S(=O)(=O)N[C@@H]2C=C[C@H](CC(=O)N3CCN(c4ccccc4)CC3)O[C@H]2CO)cc1	-5	-13	13	i	-0.6
CCCC#Cc1cnc2c(c1)C(=O)N([C@H](C)CO)C[C@H](C)[C@@H](CN(C)C(=O)Cc1ccncc1)O2	0	4	-1.9	i	-2.4
C[C@@H]1CN([C@@H](C)CO)C(=O)Cc2cc(NC(=O)Nc3ccc4c(c3)OCO4)ccc2O[C@H]1CN(C)C(=O)Nc1ccc2c(c1)OCO2	-2	8	-1.9	i	4.1
CCC(=O)N1CC2(CCN(C(=O)CN3CCOCC3)CC2)c2c([nH]c3cc(OC)ccc23)[C@H]1CO	4	4	0.2	i	2.1
COc1ccc(CN(C)C[C@H]2OCCCC[C@H](C)Oc3ccc(NC(=O)NC4CCCCC4)cc3C(=O)N([C@@H](C)CO)C[C@H]2C)cc1	-1	0	0.0	i	6.3
CNC[C@H]1Oc2ccc(NC(=O)Cc3cn(C)c4ccccc34)cc2C(=O)N([C@@H](C)CO)C[C@H]1C	6	12	-1.6	i	3.9
COc1ccccc1-c1cnc2c(c1)C(=O)N([C@@H](C)CO)C[C@H](C)[C@H](CN(C)Cc1ccc(C(=O)O)cc1)O2	1	8	-0.3	i	-4.8
Cc1ccc(-c2ccc([C@H]3[C@H](CO)N4CCCCN(C(=O)c5ccncc5)C[C@@H]34)cc2)cc1	-6	4	10	i	0.6
C[C@H](CO)N1C[C@H](C)[C@H](CN(C)CC2CCCCC2)Oc2ccc(NC(=O)c3ccncc3)cc2C1=O	0	11	-3.6	i	-2.1
C[C@@H]1CN([C@H](C)CO)C(=O)c2cc(C#Cc3ccccc3)cnc2O[C@H]1CN(C)C(=O)CN(C)C	4	2	-0.8	i	18
O=C(C[C@H]1CC[C@@H]2[C@H](COC[C@H](O)CN2C(=O)Nc2ccccc2)O1)NCc1ccccc1F	3	20	-0.7	i	-1.7
COc1ccc(NC(=O)Nc2cccc3c2O[C@@H](CN(C)Cc2ccc4c(c2)OCO4)[C@@H](C)CN([C@@H](C)CO)C3=O)cc1	-1	8	-2.9	i	-3.7
COC(=O)C[C@@H]1CC[C@@H]2[C@@H](COc3ccc(NC(=O)c4cc(C)on4)cc3C(=O)N2C)O1	0	-2	1.2	i	-1.5
COc1ccc(CNC(=O)c2ccc(-n3ccnc3)c3ccoc23)cc1OC	-7	-8	-0.7	i	2.0
COc1ccc(CN(C)C[C@@H]2OCCCC[C@@H](C)Oc3ccc(NC(=O)Nc4cccc5ccccc45)cc3C(=O)N([C@H](C)CO)C[C@H]2C)cc1	-9	-29	4.9	i	13
COCCNC(=O)[C@H]1[C@H](CO)[C@H]2Cn3c(cccc3=O)[C@@H]1N2Cc1cc(F)ccc1F	3	1	0.5	i	-2.3
COc1ccc(-c2cn(CC[C@@H]3CC[C@H](NC(=O)CCN4CCCCC4)[C@H](CO)O3)nn2)cc1	3	1	-0.5	i	0.8
CCCNC(=O)C[C@@H]1CC[C@H]2[C@H](COc3ccc(NC(=O)c4cccc(C(F)(F)F)c4)cc3C(=O)N2C)O1	-6	-2	-3.6	i	-2.1
COc1ccccc1-c1cc2c(c3c1ccn3C)C1CCC2C1 (stereo not given)	0	-5	-0.5	i	7.0
COc1ccc(CN(C)C[C@H]2Oc3ccc(NC(=O)Nc4ccc(F)cc4)cc3CC(=O)N([C@H](C)CO)C[C@H]2C)cc1	3	-47	33	i	-2.4
CCS(=O)(=O)Nc1ccc2c(c1)C(=O)N(C)C[C@H](OC)[C@@H](C)CN(C(=O)c1ccc3c(c1)OCO3)[C@@H](C)CO2	-1	3	1.7	i	3.2
Cc1cc(=O)c2c(=O)[nH][nH]c2[nH]1	4	13	-5.1	i	-2.6
C[C@H](CO)N1C[C@H](C)[C@H](CN(C)C(=O)Nc2ccccc2F)Oc2cc(-c3ccccc3)ccc2S1(=O)=O	-2	-11	6.1	i	2.0
COC(=O)C[C@H]1CC[C@@H]2[C@@H](COc3ccc(NC(=O)c4ccc(F)c(F)c4)cc3C(=O)N2C)O1	-6	-6	0.8	i	0.4
CCC(=O)N(C)C[C@@H]1Oc2cc(C#Cc3ccccc3)ccc2S(=O)(=O)N([C@H](C)CO)C[C@H]1C	-21	-54	16	i	-1.6
CO[C@H]1CN(C)C(=O)c2ccc(NC(=O)c3ccccc3)cc2OC[C@H](C)N(C)C[C@@H]1C	-1	4	-1.3	i	-0.7
CCN(CC)S(=O)(=O)c1ccc(N2CCOCC2)c(NC(=O)c2nn(C(C)C)c(=O)c3ccccc23)c1	12	19	0.4	i	-1.9
COc1cc(-c2cc(=O)c3c(C)cc(O)cc3o2)cc(OC)c1OC	-2	7	2.0	i	-0.5
COc1ccccc1NC(=O)N[C@H]1CC[C@H](CCNS(=O)(=O)c2ccc(F)cc2)O[C@@H]1CO	-2	-5	-2.1	i	1.5
COc1ccc(S(=O)(=O)Nc2ccc3c(c2)C(=O)N([C@@H](C)CO)C[C@H](C)[C@H](CN(C)C(=O)NC2CCCCC2)OCCCC[C@@H](C)O3)cc1	-2	1	2.9	i	-2.8
O=C(C[C@@H]1C[C@@H]2c3cc(NC(=O)NC4CCCCC4)ccc3O[C@@H]2[C@H](CO)O1)NCC(F)(F)F	-7	-4	-6.1	i	-2.0

Full records, quoted from the list. Values in the order: rRNA inh HTS	rRNA inh HTS OD600	rRNA inh HTS RFP	FGF22 binding	AF4-AF9 inh
COc1cc(-c2cc(=O)c3c(C)cc(O)cc3o2)cc(OC)c1OC as listed: -2	7	2.0	i	-0.5
COC(=O)C[C@H]1CC[C@@H]2[C@@H](COc3ccc(NC(=O)c4ccc(F)c(F)c4)cc3C(=O)N2C)O1 as listed: -6	-6	0.8	i	0.4

Later entries:
SMILES	rRNA inh HTS	rRNA inh HTS OD600	rRNA inh HTS RFP	FGF22 binding	AF4-AF9 inh
C[C@@H]1CN([C@H](C)CO)C(=O)c2cccc(NS(C)(=O)=O)c2O[C@@H]1CN(C)Cc1ccc2c(c1)OCO2	4	11	-0.3	i	-1.8
C[C@H]1CN([C@@H](C)CO)C(=O)c2cccc(NC(=O)c3cnccn3)c2O[C@H]1CN(C)C(=O)Nc1ccc(F)cc1	-2	10	-1.2	i	-5.8
CN1C(=O)c2cc(NC(=O)Nc3ccccc3F)ccc2OC[C@@H]2O[C@H](CC(=O)NCCc3ccncc3)CC[C@@H]21	0	-4	0.5	i	0.3
CCC(=O)Nc1ccc2c(c1)OC[C@H](C)N(Cc1ccccc1F)C[C@@H](C)[C@@H](OC)CN(C)C2=O	-6	-2	2.2	i	2.9
O=C(C[C@@H]1CC[C@@H]2[C@H](COC[C@@H](O)CN2C(=O)Cc2ccccc2)O1)NC1CCCC1	6	9	-1.1	i	0.6
CS(=O)(=O)N1C[C@@H](O)COC[C@H]2O[C@H](CC(=O)NCCc3ccncc3)CC[C@@H]21	-2	5	-1.4	i	-7.0
Cc1noc(C)c1NC(=O)Nc1ccc2c(c1)C(=O)N([C@@H](C)CO)C[C@@H](C)[C@H](CN(C)C(=O)Nc1ccc3c(c1)OCO3)OCCCC[C@@H](C)O2	1	10	-3.8	i	3.5
CCc1ccc(C(=O)NCC2(c3ccccc3)CCOCC2)o1	13	12	-2.4	i	-10
c1ccc(-c2cc3nc(NCc4cccs4)nc(NCc4ccc5occc5c4)c3s2)cc1	4	-2	-3.3	i	3.3
CCCc1cn(CC[C@H]2CC[C@@H](NC(=O)Nc3ccccc3F)[C@@H](CO)O2)nn1	2	3	0.6	i	-0.7
C[C@@H]1CN([C@@H](C)CO)C(=O)c2cc(NC(=O)Nc3cccc4ccccc34)ccc2O[C@H]1CN(C)Cc1ccc(C(=O)Nc2ccccc2N)cc1	-6	-2	0.0	i	-2.0
N#Cc1ccc(-c2ccc([C@H]3[C@H](CO)N4C(=O)CN(C(=O)C5CCCCC5)C[C@@H]34)cc2)cc1	-1	3	-2.8	i	-1.1

Structures listed so far that have an NH in an aromatic ring:
SMILES	rRNA inh HTS	rRNA inh HTS OD600	rRNA inh HTS RFP	FGF22 binding	AF4-AF9 inh
CCC(=O)N1CC2(CCN(C(=O)CN3CCOCC3)CC2)c2c([nH]c3cc(OC)ccc23)[C@H]1CO	4	4	0.2	i	2.1
Cc1cc(=O)c2c(=O)[nH][nH]c2[nH]1	4	13	-5.1	i	-2.6

Additional records:
SMILES	rRNA inh HTS	rRNA inh HTS OD600	rRNA inh HTS RFP	FGF22 binding	AF4-AF9 inh
O=C(NCc1ccccc1Br)c1cccs1	-9	-13	-8.5	i	0.9
CCC(=O)N[C@H]1C=C[C@@H](CC(=O)NCc2ccccc2F)O[C@@H]1CO	5	8	-3.3	i	1.0
CC1(C(=O)NS(=O)(=O)Cc2cccc(Cl)c2)CCN1C(=O)CCc1cccs1 (stereo not given)	9	8	-1.0	i	-1.6
Cc1ccc(S(=O)(=O)N2CCC[C@H]2C(=O)OCc2nc3ccccc3s2)cc1	-2	14	-0.2	i	-1.8
C[C@H](CO)N1C[C@H](C)[C@H](CN(C)C(=O)Nc2ccc3c(c2)OCO3)Oc2ncc(-c3ccccc3)cc2C1=O	-4	-3	0.7	i	3.5&4.4
C[C@H]1CN([C@@H](C)CO)C(=O)c2cccc(NC(=O)Nc3ccccc3)c2O[C@@H]1CN(C)S(=O)(=O)c1ccc(F)cc1	0	-5	-0.9	i	-0.1
CS(=O)(=O)Nc1ccc2c(c1)[C@H]1C[C@H](CC(=O)NC3CCCC3)O[C@H](CO)[C@H]1O2	4	7	-0.7	i	2.4
COc1ccc(CN(C)C[C@H]2Oc3ccc(NS(=O)(=O)c4ccc(C)cc4)cc3CC(=O)N([C@@H](C)CO)C[C@H]2C)cc1	0	-6	1.2	i	-11
COc1ccc(NC(=O)Nc2cccc3c2O[C@H](CN(C)Cc2ccc(C(F)(F)F)cc2)[C@H](C)CN([C@H](C)CO)C3=O)cc1	-6	-8	19	i	5.5
COc1cccc(C(=O)Nc2ccc3c(c2)C(=O)N(C)C[C@H](OC)[C@H](C)CN(C(C)=O)[C@@H](C)CO3)c1	1	-4	-0.3	i	1.6
C[C@H]1CN([C@@H](C)CO)C(=O)Cc2cc(NS(=O)(=O)c3ccc(Cl)cc3)ccc2O[C@@H]1CN(C)C(=O)Nc1ccccc1	2	9	0.7	i	-3.2
COc1ccc(Cl)cc1S(=O)(=O)NC(C)c1cnn(-c2ccccn2)c1C (stereo not given)	-2	-14	4.2	i	-0.1
COc1ccc(NC(=O)Nc2ccc3c(c2)C(=O)N([C@H](C)CO)C[C@H](C)[C@@H](CN(C)C(=O)c2ccccc2)OCCCC[C@@H](C)O3)cc1	-1	-2	-3.5	i	-1.9
C[C@H](CO)N1C[C@H](C)[C@H](CN(C)C(=O)Nc2ccccc2)Oc2ncc(-c3ccccc3)cc2C1=O	-3	0	-1.5	i	-0.8&-0.6
N#Cc1cccc(C(=O)C(=O)N2CCC(c3ccccc3)CC2)c1	-21	-31	-4.2	i	-2.6
C[C@@H]1CCCCO[C@H](CN(C)C(=O)Nc2ccccc2)[C@@H](C)CN([C@H](C)CO)C(=O)c2cc(NS(=O)(=O)c3cn(C)cn3)ccc2O1	25	13	-0.6	i	0.8&1.8
C[C@@H]1CCCCO[C@@H](CN(C)S(=O)(=O)c2cn(C)cn2)[C@@H](C)CN([C@H](C)CO)C(=O)c2cc(NS(=O)(=O)c3cn(C)cn3)ccc2O1	5	13	-3.0	i	-13
COc1ccccc1NC(=O)N[C@@H]1CC[C@H](CC(=O)NCc2ccc(Cl)c(Cl)c2)O[C@@H]1CO	-11	-21	7.2	i	0.8

At a glance, two of the compounds above.
SMILES	rRNA inh HTS	rRNA inh HTS OD600	rRNA inh HTS RFP	FGF22 binding	AF4-AF9 inh
C[C@@H]1CCCCO[C@H](CN(C)C(=O)Nc2ccccc2)[C@@H](C)CN([C@H](C)CO)C(=O)c2cc(NS(=O)(=O)c3cn(C)cn3)ccc2O1	25	13	-0.6	i	0.8&1.8
C[C@@H]1CCCCO[C@@H](CN(C)S(=O)(=O)c2cn(C)cn2)[C@@H](C)CN([C@H](C)CO)C(=O)c2cc(NS(=O)(=O)c3cn(C)cn3)ccc2O1	5	13	-3.0	i	-13

Screens as filed in PubChem BioAssay.
